# PABP polyA inh: blocks human PABP binding to poly(A) RNA; 290,000 tested, 1% active; P11940; fluorescence polarization; inhibition, % at 35 µM;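 active = 50% or more with normal probe brightness, or confirmed in later tests; about a fifth of its hits are not listed in these tables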;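 note: calls also rest on retests at 20 µM and on dose response follow-up; controls were probe without protein and protein plus probe with vehicle; some compounds called inactive have numbers as strong as hits; many hits fall short of the cut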
# MT1-MMP act inh: MT1-MMP (human) activation inhibition; P50281; HT1080 RFP-PRO-GFP cells, GFP/RFP ratio fluorescence, overnight; percent of plate control window, DMSO zero; GFP/RFP ratio change, % at 20 µM; 360,000 tested, 0.061% active; AID 651647;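 active = GFP/RFP ratio change of at least 30% with cell ATP level not reduced by more than half and red fluorescence within 50% of control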; note: strong numbers were not always called active
#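 Test system: HT1080 RFP-PRO-GFP cells; Benchmarks: DMSO and RFP-L50D-GFP cell wells; Timing: cells overnight before dosing, compound overnight, 37 °C, 5% CO2; Compound: one 20 µM compound dose with 1% DMSO; Read-out: GFP/RFP fluorescence ratio.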
# eIF4H FP inh: inhibitors of RNA binding by human eIF4H; Q15056; eIF4H fluorescence polarization binding assay; inhibition, % at 35 µM; 290,000 tested, 0.94% active; AID 2012;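 active = 50% or more with normal probe brightness, or confirmed in later tests; about a fifth of its hits are not listed in these tables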;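 note: calls also rest on retests at 20 µM and on dose response follow-up; 0% = protein and probe with vehicle and 100% = probe without protein; strong numbers were not always called active; many hits fall short of the cut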
# Rce1 inhib: blocks yeast Ras-converting enzyme; 290,000 tested, 0.27% active; AID 2563; calls only; yeast membranes, quenched prenylated peptide cleavage fluorescence;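 active = fall in fluorescence gain of 50% or more versus controls, with final raw signal at or below 3038400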;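 note: plate controls were neutral control wells for no effect and wells lacking membranes for full effect; tested at 10 µM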
# Target sequence (Q03530 whole entry, looked up): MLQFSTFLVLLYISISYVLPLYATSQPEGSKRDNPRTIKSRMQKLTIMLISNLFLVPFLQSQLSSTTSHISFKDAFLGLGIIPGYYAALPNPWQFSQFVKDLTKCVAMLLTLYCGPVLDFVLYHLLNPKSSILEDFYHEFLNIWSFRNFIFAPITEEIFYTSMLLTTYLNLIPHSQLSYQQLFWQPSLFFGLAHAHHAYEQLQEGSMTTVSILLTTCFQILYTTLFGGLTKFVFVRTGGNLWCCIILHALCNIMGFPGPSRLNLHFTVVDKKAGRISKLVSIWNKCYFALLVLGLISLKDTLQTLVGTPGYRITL
# UUG fidelity: yeast start codon fidelity modulation; AID 602363; 350,000 tested, 0.13% active; S. cerevisiae UUG-firefly luciferase reporter, luminescence/redox ratio; activity score, % at 18.7 µM;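 active = replicate mean at a twofold rise or more, about +100% in these data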;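 note: firefly luciferase made from a UUG start codon reports start codon fidelity; reporter light over untreated wells divided by growth signal over untreated wells; some hits fall short of that in this replicate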
# HIV Env fusion: blocks HIV Env-driven cell-cell fusion. HeLa-JRFL Env/CEM21 cell fusion, luciferase. inhibition, % at 12.3 µM. 360,000 tested, 1.1% active;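 active = mean replicate inhibition score of at least 50 and every replicate individually at or above 50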;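 note: 0% = plate neutral controls and 100% = maraviroc near 300 nM; one replicate is shown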
# CSC inhib: blocks cancer stem cells. cancer stem cell-like cells viability, luminescence. inhibition, % at 7.5 µM. 300,000 tested, 1.1% active. AID 2717;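 active = mean at 75% or more and at least half the replicates too; tested in HMLE shEcad cells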;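 note: 0% = median of negative and 100% = median of positive control wells; the first replicate is given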
# eIF4H FP inh retest: second read-out of eIF4H FP inh, no call of its own (marks repeat the call); inhibition, %; compound at 20 µM; confirmation average;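 mean of two retest wells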
# PABP polyA inh retest: further read-out of PABP polyA inh, marked with its call; inhibition, %; compound at 20 µM; confirmation repeats;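 mean of two retest wells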
# MT1-MMP act inh RFP: further read-out of MT1-MMP act inh, marked with its call; RFP signal change, %; measured here: RFP expression control read;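 0 = vehicle wells; hits needed this value within 50% of zero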
# The depositor's hits bear a star; i = inactive; . = no result given; [ ] = remark or other dose.
SMILES,PABP polyA inh,MT1-MMP act inh,MT1-MMP act inh RFP,eIF4H FP inh,Rce1 inhib,UUG fidelity,HIV Env fusion,CSC inhib,others
CC1(C)CC(=O)C2=C(C1)N(CC1CCCO1)C(=O)NC2(C(F)(F)F)C(F)(F)F (stereo unspecified),-4.7,5.7,1.3,-9.0,i,-4.6,.,-19.3,
CC(O)[C@H]1CNCCN1CCc1cccc(F)c1 (stereo partly specified),.,0.7,1.5,.,i,0.4,-11.8,4.7,
CCOC(=O)COc1ccc(Br)cc1/C=C/c1[nH]c(=O)[nH]c(=O)c1[N+](=O)[O-],8.5,-1.6,-13.6,0.7,i,-5.2,2.1,56.1,
CC(C)OCCCN1C=C2C(=O)C(C)(OC(=O)CCc3ccccc3)C(=O)C=C2C=C1c1ccc(C#N)cc1 (stereo unspecified),25.9,.,.,54.3,i,.,-12.9,-8.5,eIF4H FP inh retest=25.8;PABP polyA inh retest=46.2
CCOc1ccc2[nH]c(=O)c(CN(Cc3ccco3)C(=O)c3cccc(F)c3)cc2c1,11.6,-3.7,-10.4,-3.1,i,1.3,.,-8.9,
CN1CCN(S(=O)(=O)c2ccc3c(c2)CC(=O)N3C)CC1,4.3,-2.3,3.7,-2.0,i,0.6,8.0,-3.8,
CCCCCCCCNC(=O)c1cccnc1SCC(=O)Nc1ccc(OC)cc1OC,6.4*,2.0,3.1,64.2*,i,.,.,-1.0,eIF4H FP inh retest=91.2*;PABP polyA inh retest=77.4*
CCCCCc1n[nH]c2c1CCCC2,-2.3,-0.9,2.0,-10.0,i,-24.4,-19.5,-0.4,
Cc1ccc(C(=O)CN(C(=O)c2ccc(Cl)c(Cl)c2)N2C(=O)C3C4C=CC(C4)C3C2=O)cc1 (stereo unspecified),8.5,-1.4,-4.2,-11.0,i,-8.7,.,36.3,
COCCS(=O)(=O)N(Cc1ccc(Br)cc1)[C@@H](C)C(=O)OC,.,3.5,2.8,.,.,-16.9,8.5,.,
Cc1ccc(OCCC(=O)Nc2ccc(S(=O)(=O)Nc3cc(C)nc(C)n3)cc2)cc1,.,2.1,-0.5,.,i,.,-6.8,-3.2,
O=C(O)CCCC(=O)NNc1nc(-c2ccccc2)c2cc(Cl)ccc2n1,2.6,0.9,-3.9,-7.5,i,7.7,9.8,-11.9,

# The last 3 entries of the part above are carried over, then new ones follow:
SMILES,PABP polyA inh,MT1-MMP act inh,MT1-MMP act inh RFP,eIF4H FP inh,Rce1 inhib,UUG fidelity,HIV Env fusion,CSC inhib,others
COCCS(=O)(=O)N(Cc1ccc(Br)cc1)[C@@H](C)C(=O)OC,.,3.5,2.8,.,.,-16.9,8.5,.,
Cc1ccc(OCCC(=O)Nc2ccc(S(=O)(=O)Nc3cc(C)nc(C)n3)cc2)cc1,.,2.1,-0.5,.,i,.,-6.8,-3.2,
O=C(O)CCCC(=O)NNc1nc(-c2ccccc2)c2cc(Cl)ccc2n1,2.6,0.9,-3.9,-7.5,i,7.7,9.8,-11.9,
CS(=O)Cc1cc(Oc2ccccc2)nc(-c2ccncc2)n1 (stereo unspecified),12.8,6.8,4.6,-6.6,i,-19.7,15.3,-4.8,
CCN(C(=O)COC(=O)c1cnc(C)cn1)c1c(N)n(Cc2ccccc2)c(=O)[nH]c1=O,.,-1.3,1.9,.,.,-16.9,.,-11.8,
COc1ccccc1-c1csc(C(O)c2ccccc2)n1 (stereo unspecified),.,-0.7,0.5,.,.,7.4,6.7,.,
Cc1nc(C(=O)NC2CCOCC2)sc1C1(C)CC(c2cccc([N+](=O)[O-])c2)=NO1 (stereo unspecified),-2.0,7.0,-4.0,4.3,i,-2.5,15.9,-7.4,
CCOC(=O)c1ccc(NC(=O)c2nc[nH]c2C(=O)N2CCN(c3ccccc3)CC2)cc1,-1.0,1.9,-4.6,-1.7,i,-12.8,10.2,.,
COc1ccc(N(CC(=O)Nc2ccc3c(c2)OCCO3)S(=O)(=O)c2cccc(C)c2)cc1,.,-1.7,-5.9,.,.,2.2,-0.1,.,
Cc1ccc(/C=C/S(=O)(=O)NCC(=O)OCC(=O)Nc2c(F)cccc2F)cc1,.,2.1,-1.9,.,i,-9.8,-12.9,-2.7,
O=C(Oc1ccccc1N1C(=O)C2CC=CCC2C1=O)c1ccc(Br)cc1 (stereo unspecified),11.4,1.7,1.0,-1.7,i,.,-11.2,-7.2,
O=C(NCc1nc2ccccc2[nH]1)C1=C[C@H](C2CC2)C[C@H](OCCCCO)O1,-9.7,1.9,4.0,-1.9,i,1.9,1.6[16.7 µM],-14.5,
CC(C)(C)c1ccc(S(=O)(=O)NC(=O)C2(C)CCN2C(=O)C2CC2)cc1 (stereo unspecified),.,0.8,5.2,.,.,-6.8,-36.1,.,
NS(=O)(=O)c1ccc(CCNC(=O)CCS(=O)(=O)c2ccc(Br)cc2)cc1,32.4,-1.2,0.4,89.6*,i,2.1,-9.1,2.1,eIF4H FP inh retest=94.1*;PABP polyA inh retest=41.6
COc1ccc2[nH]c3c(=O)n(Cc4ccc(C(=O)N5CCCC5)cc4)c(=S)[nH]c3c2c1,13.2,-10.0,-5.9,16.7,i,.,-12.5,-5.8,
O=c1[nH]c(N/N=C/c2ccccc2Br)nnc1-c1ccccc1,5.6,-61.7,-46.6,-4.5,i,.,-9.9,26.1,
Cc1cc(C)c(C#N)c(SCc2ccccc2F)n1,3.1,-0.6,-2.5,-7.5,i,-13.0,-8.2,-11.5,
CC(Cl)=CCn1c(NCCc2ccccc2)nc2c1c(=O)n(C)c(=O)n2C,.,17.0,-25.1,.,.,14.2,93.6*,.,
COc1ccc(-c2cc(NC=O)c3ncc(-c4cnn(C)c4)n3c2)cc1,.,-28.0,5.6,.,.,-16.9,-88.9,.,
O=C(c1ccccc1Oc1ccc([N+](=O)[O-])cc1)N1CCOCC1,3.8,-2.1,-0.5,-3.0,i,-14.3,-2.6,-6.6,
CC(=O)Oc1ccc(-c2cccc(C(=O)OCC(=O)N(C)c3ccccc3)c2)cc1,2.9,0.0,0.7,5.7,i,-18.2,-45.4,0.6,
CC(C)C(=O)N1CCN(c2ccc(NC(=O)c3ccc(Br)o3)cc2)CC1,-7.1,6.2,3.4,-9.0,i,-33.8,-33.8,.,
Cc1ccccc1N(CC(=O)N1CCc2ccccc2C1)S(C)(=O)=O,-0.2,-1.4,0.0,-15.6,i,2.2,-64.2,0.9,
CCOC(=O)c1c(N)nn(C(=O)C(C)C)c1-c1ccccc1,-0.4,-4.2,-0.3,2.5,i,5.2,.,-10.3,
COc1ccc(C(=O)NC2CC2)cc1OC1CCN(Cc2cnn(C)c2C)CC1,7.9,3.1,3.9,7.7,i,-13.1,9.6,-10.0,
Cc1ccc(-n2c(Cc3cccn3C)nnc2SCC(=O)Nc2ccc3c(c2)OCO3)cc1,0.5,-2.4,-3.5,-1.2,.,-3.0,.,.,
Cc1nnsc1NC(=O)OCc1ccccc1Cl,1.9,-0.6,-13.4,6.1,i,.,.,8.0,
CCN(CC)CCOC(=O)C1(c2ccc([N+](=O)[O-])cc2)CCCC1,.,-3.2,2.1,.,.,-18.2,.,-11.1,
CCOC(=O)c1cc(C(C)=O)c(=O)[nH]c1C,-8.4,0.7,3.7,-0.6,i,-0.8,-1.2,-2.3,
Cc1ccc(N(Cc2cc3ccc(C)cc3[nH]c2=O)C(=O)c2cccs2)cc1,2.2,.,.,1.2,i,.,.,-2.6,
COc1ccc(C(=O)COC(=O)C(CC(C)C)N2C(=O)c3ccccc3C2=O)cc1 (stereo unspecified),8.3,-5.3,-6.5,-2.8,i,-22.8,29.3,-10.5,
CN(C1CCCC1)C1CCN(C(=O)CNC(=O)/C=C/c2cccc(C(F)(F)F)c2)CC1,0.5,3.7,2.7,-6.3,i,-12.4,-13.5,16.0,
Cc1ccccc1C1=NC(C(F)(F)F)(C(F)(F)F)c2c(n(-c3ccc(F)cc3)c(=O)[nH]c2=O)N1,0.5,-1.9,0.1,8.0,i,-9.6,.,9.2,
COc1ccc(OC)c(S(=O)(=O)Nc2ccccc2C(F)(F)F)c1,-6.9,-4.7,3.3,-2.7,i,-13.6,-18.1,2.3,
COc1ccc(NS(=O)(=O)c2cccc(C(=O)NCCCN3CCCC3=O)c2)cc1,.,3.7,3.5,.,i,-8.3,-5.2,5.9,
CCN1CCCC1CNC(=O)c1cc2c(=O)n(C)c3ccccc3c2n1C (stereo unspecified),-0.3,-0.5,4.5,-2.3,i,1.8,-10.0,.,
CCN(CC(=O)Nc1ccccc1C(F)(F)F)CC(=O)NC1CC1,.,0.6,5.3,.,.,-2.7,-4.3,.,
COc1ccccc1N1CN(Cc2ccccc2)CNC1=S,4.3,3.4,3.7,0.2,i,-16.9,4.7,-13.3,
COc1ccc(NC(=O)c2ccc(=O)[nH]c2)cc1S(=O)(=O)N1CCOCC1,.,-0.2,3.0,.,.,-4.2,-5.8,.,
COc1ccc(C2=[N+](C)CCn3cccc32)c(OC)c1,-6.9,1.2,-10.8,-0.3,i,.,-18.4,-12.2,
Cc1nn2c(NCCCn3ccnc3)cc(C(C)C)nc2c1-c1ccccc1,-6.5,-0.1,-12.9,1.6,i,.,-8.6,22.5,
COc1ccc2c(c1)C(c1cccs1)=NNC(c1ccncc1)=N2,3.3,0.7,0.0,0.8,i,.,46.6,-4.9,
CC(C)NC(=O)N(C)C[C@@H]1Oc2ccc(NC(=O)CCN3CCOCC3)cc2CC(=O)N([C@@H](C)CO)C[C@@H]1C,.,-9.8,3.1,.,.,7.2,-4.3,7.5,
c1cc2c(cc1C1CCCCC1)c1c3n2CCCNC3CCC1 (stereo unspecified),5.1,-5.0,-10.1,-8.7,i,.,.,6.9,
COc1ccccc1C(=O)N/C(=C/c1ccc(Br)cc1)C(=O)N1CCOCC1,.,4.7,3.5,.,.,-3.3,-17.0,.,
CCCCn1c(N)c(N(CCOC)C(=O)COC(=O)c2cc(CCC)c(C)s2)c(=O)[nH]c1=O,.,-3.9,-2.3,.,i,.,30.3,-16.5,
C=CCNC(=O)CSc1ccc(Cl)cc1,-9.0,1.5,-0.8,-5.9,i,-9.6,-23.1,.,
O=C(NCCN1CCN(Cc2ccccc2)CC1)c1cc2c(=O)[nH]c3ccccc3c2s1,5.6,5.6,-10.5,1.0,i,-2.9,-8.8,.,
CN(C)/C=C/C(=O)c1cnc(-c2ccccc2)s1,4.5,-3.2,0.3,-5.4,i,-10.3,-11.9,12.3,
Cc1ccc(N2C(=O)C(Cl)=C(N3CCCCCC3)C2=O)c(C)c1,-5.6,-2.8,-9.9,-7.9,i,-2.6,6.0,-13.4,
CC(NC(=O)c1ccccc1F)c1nnc(SCC(=O)Nc2nnc(C3CC3)s2)n1C (stereo unspecified),.,-1.7,1.2,.,i,-11.8,3.0,13.4,
O=C(COC(=O)C1=COCCO1)Nc1ncc(Cl)cc1Cl,.,-0.3,2.8,.,i,2.6,8.1,-13.1,
CC(C)Oc1cc(NC(=O)CSCC(=O)Nc2cccc(C(F)(F)F)c2)c(Cl)cc1Cl,5.7,4.5,-8.6,-2.6,i,20.4,61.8*,50.8,
C/C(CC(=O)Nc1cccc(C(F)(F)F)c1)=N\NC(=O)C1CCCCC1,12.6,-0.6,0.6,-6.1,i,.,10.9,-13.5,
O=C(NCC1COc2ccccc2O1)c1cc2ccccc2o1 (stereo unspecified),-4.6,2.5,1.7,0.9,i,-10.6,.,-7.7,
O=C(Nc1cccnc1Cl)c1cccc(S(=O)(=O)N2CCOCC2)c1,1.1,6.8,4.5,1.5,i,-9.4,1.2,.,
COc1cc2c(cc1OC)C(O)=CC(=O)C2=O,.,11.7,4.3,.,.,-1.6,19.0,.,
CCCC(=O)Nc1cc(OC)c(NC(=S)Nc2cccc(C)c2)cc1OC,.,0.0,5.0,.,.,-12.4,14.8,.,

# Screens from PubChem BioAssay.
